CtBP-E1A inh: blocks the CtBP interaction with E1A. AlphaScreen GST-E1A/His-CtBP binding, 1536-well; active compounds read low; control for the full effect not named in the record. activity change, % (concentration not given with the values). 340,000 tested, 0.49% active; in the data active means activity change below about -65%; inconclusive means about -30% to -65%; inactive means above about -30%; note: % is set by controls: 0 for no effect and ±100 for the full control effect
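Protein mix (5X: 125 nM each GST-E1A, His-CtBP) was incubated with pinned compound 2 h at 37 deg C in dark, in 50 mM Tris pH 8.0 buffer with 300 mM NaCl. Glutathione donor and nickel acceptor beads followed; AlphaScreen signal read after 1 h.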
D2 ag: activates the human D2 dopamine receptor; activation, % (test concentration not listed); 360,000 tested, 0.084% active; P14416; DiscoveRx PathHunter D2 beta-arrestin, luminescence, 90 min; 100% = 57 uM dopamine signal; in the data active = activation above about 40%; inconclusive = about 15% to 40%; inactive = below about 15%; note: compound concentration not given in the record; the text of the record calls up to 30% inactive
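Agonist mode: compounds alone added to overnight-plated D2 PathHunter cells for 90 min at 37 C, with 57 uM final dopamine (EC100) defining full response. Beta-arrestin recruitment detected by chemiluminescent reagent, read after 1 h at ambient temperature.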
D2 potentiator: potentiates the human D2 dopamine receptor allosterically; potentiation, % (test concentration not listed); 360,000 tested, 0.23% active; DiscoveRx D2 beta-arrestin cells, luminescence, 90 min; 100% = 57 uM dopamine signal; active = potentiation of 50% or more; inconclusive = 30% to 50%; inactive = 30% or less;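 note: compound concentration not given in the record; tested on top of an EC20 dose of dopamine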
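PathHunter beta-arrestin assay in DiscoveRx D2 cells. Compounds were added with an EC20 of dopamine (50 nM final) for 90 min at 37 deg C. Luminescence was read 1 h after detection reagent, with 57 uM dopamine as the EC100 control.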
gsp antagonist: gsp mutant antagonism; gsp-mutant cells, cAMP HTRF, 30 min; control for the full effect not named in the record; Potency, µM (series often up to 76.9 µM), inactives show top-dose activity change, negative = inhibition, usual class: inhibitors; 340,000 tested, 0.4% active; AID 624288; active = falling curve of any shape with a large fitted effect; inconclusive = falling curve, mostly with a smaller effect; inactive = flat or rising curve; cell line not stated here;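 note: intracellular cAMP measured with PDE inhibitor Ro 20-1724 present during compound exposure; potency is the fitted concentration of half-maximal effect; % is set by controls: 0 for no effect and ±100 for the full control effect; nearly all actives have a fitted effect of over 65% in size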
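HTRF cAMP measurement after 30 min RT detection following 30 min, 37C compound treatment alongside […] (added as 300 uM solution) in G418-selected cells seeded at 2000/well and grown 16–24 h.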
Six1-Eya2 blk: blocks human Six1 binding to Eya2. Q15475+O00167. AlphaScreen GST-Six1/His-Eya2 binding, biochemical; active compounds read low; control for the full effect not named in the record. activity change, % (concentration not given with the values). 360,000 tested, 0.56% active. AID 651725; in the data active = activity change below about -65%; inconclusive = about -30% to -65%; inactive = above about -30%; note: % is set by controls: 0 for no effect and ±100 for the full control effect
Target sequence (O00167 whole entry, looked up): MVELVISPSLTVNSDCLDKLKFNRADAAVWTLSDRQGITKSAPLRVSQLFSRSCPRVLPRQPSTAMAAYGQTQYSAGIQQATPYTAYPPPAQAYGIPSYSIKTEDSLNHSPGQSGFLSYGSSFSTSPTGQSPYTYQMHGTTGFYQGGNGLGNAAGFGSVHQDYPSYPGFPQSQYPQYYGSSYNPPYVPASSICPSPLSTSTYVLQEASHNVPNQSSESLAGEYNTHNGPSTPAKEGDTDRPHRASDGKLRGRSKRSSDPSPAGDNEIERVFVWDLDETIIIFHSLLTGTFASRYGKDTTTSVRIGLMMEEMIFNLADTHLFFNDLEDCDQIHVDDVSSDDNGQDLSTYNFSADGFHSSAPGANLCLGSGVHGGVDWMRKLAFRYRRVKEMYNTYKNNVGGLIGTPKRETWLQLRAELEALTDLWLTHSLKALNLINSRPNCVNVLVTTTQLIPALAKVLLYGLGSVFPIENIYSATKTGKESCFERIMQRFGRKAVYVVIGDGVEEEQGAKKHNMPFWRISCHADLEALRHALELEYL
Target sequence (Q15475 whole entry, looked up): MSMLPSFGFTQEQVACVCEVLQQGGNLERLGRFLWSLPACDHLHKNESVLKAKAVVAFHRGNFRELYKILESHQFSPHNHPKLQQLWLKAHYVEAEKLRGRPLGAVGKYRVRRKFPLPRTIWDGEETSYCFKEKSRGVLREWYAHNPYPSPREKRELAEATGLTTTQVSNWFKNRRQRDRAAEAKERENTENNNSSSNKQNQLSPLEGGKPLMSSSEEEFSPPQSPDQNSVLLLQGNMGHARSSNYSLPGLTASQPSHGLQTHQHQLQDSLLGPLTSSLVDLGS
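Homogeneous AlphaScreen proximity assay pairing GST-Six1 with His-tagged Eya2 (added as 5X mix: 250 nM and 500 nM) in 50 mM Tris pH 8.0, 300 mM NaCl, 1 mM TCEP. Glutathione donor and nickel acceptor beads; 1 h, 37 °C, dark.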
gsp agonist: activates gsp, the McCune-Albright syndrome mutation | gsp mutant cells, cAMP HTRF, 30 min; control for the full effect not named in the record | 340,000 tested, 0.13% active | Potency, µM (doses to about 76.9 µM), for the others: top-dose activation (cAMP increase), most hits filed as activators | AID 624287; active = well fitted activation curve with a large enough effect; inconclusive = small, poorly fitted or top-dose-only effect, or another doubt; inactive = no such curve, though single readings can be large or run the other way; cell line not stated here;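 note: phosphodiesterase inhibitor Ro 20-1724 added with compounds to block cAMP breakdown; potency is the fitted concentration of half-maximal effect; nearly all actives have a fitted effect of over 60% in size; about a fifth of the inactives were tested at one dose only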
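Cells stably selected in G418 were plated at 2000/well, grown 16-24 hr, then given compounds in DMSO with the PDE inhibitor […] (300 uM solution added) for 30 min at 37C; cAMP was read by HTRF.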
The depositor's hits bear a star; ? = inconclusive; . = no result given; [ ] = dose if it differs, or a comment.

SMILES	CtBP-E1A inh	D2 ag	D2 potentiator	gsp antagonist	Six1-Eya2 blk	gsp agonist
CCc1nc2ccccc2c(C(=O)OCC(=O)C(C)(C)C)c1C	-4	-2.0	-9	-21%	0	-9%[15.4 µM]
COc1ccc(S(=O)(=O)N2CCOC2CNC(=O)C(=O)NCCc2ccccc2)cc1C (stereo not drawn)	3	2.0	-1	-3%	0	0%
CCN(CC)S(=O)(=O)c1ccc(N(C)C)c(NC(=O)CSCc2c(C)noc2C)c1	-1	-2.8	-12	6%	7	26%[15.4 µM]
CCOc1ccc(NC(=S)Nc2ccc(F)cc2)cc1	.	0.2	10	8%	0	28%
CC(/C=N/NC(=O)c1nnn(-c2nonc2N)c1CN1CCCCC1)=C\c1ccccc1	-5	-1.0	-9	-12%	-8	13%
Cc1cc(C(=O)NCCCN(C)C)c2ccccc2n1	.	-0.1	-7	13%	5	-36%[inhibitor]
C=CCSc1ncnc2c1oc1nc3c(cc12)COC(C)(C)C3	1	-2.9	-12	4%	2	-6%[15.4 µM]
COc1ccc(CCNC(=O)NCCc2c[nH]c3ccccc23)cc1OC	-7	-0.5	-6	4%	-20	5%[15.4 µM]
CCOC(=O)c1sc(=NC(=O)c2ccc(C)c(C)c2)n(C)c1C	5	-4.8	-7	-11%	7	25%[15.4 µM]
Cc1c(/C(O)=C2/C(=O)C(=O)N(CCN(C)C)C2c2ccc(C(C)C)cc2)cnn1-c1ccccc1 (stereo not drawn)	10	-1.4	-2	5%	7	?
Cc1oc(-c2ccccc2F)nc1CS(=O)CC(=O)NC1CC1 (stereo not drawn)	1	-1.4	-6	10%	2	74%
O=C(CCCSc1ccccc1)Nc1ccc(Cl)c(S(=O)(=O)N2CCOCC2)c1	-7	3.4	-7	-18%	3	1%
CC(C)C(=O)N1c2ccccc2NC2=C(C(=O)CCC2)C1c1ccc(N(C)C)cc1 (stereo not drawn)	3	-1.0	-4	-8%	3	27%
NC(=O)Cn1cc(C(=O)C(=O)N2CCOCC2)c2ccccc21	7	0.6	-5	11%	12	?
Cc1ccccc1NS(=O)(=O)c1ccc(C(=O)NCCCN2CCCC2=O)cc1	-2	5.5	-5	-10%	1	4%[15.4 µM]
Cc1cc(CSc2ccccc2)ccc1NC(=O)c1ccc(Cl)c([N+](=O)[O-])c1	0	2.4	-12	-13%	-4	1%
COc1ccc(CNC(=O)Cn2c(=O)n(CC(=O)N3CCCCC3)c(=O)c3sccc32)cc1	.	-3.6	-12	-7%	4	-9%
COc1ccc(C(O)(CCC(C)C)C(CN2CCOCC2)c2ccc(Cl)cc2)cc1 (stereo not drawn)	-4	-1.4	0	-11%	-8	-2%
O=C(O)CNC(=S)NCc1ccccc1	-7	-2.2	5	-36%	14	30%[15.4 µM]
OCCNCc1ccc(-c2ccccc2)cc1	-23	-2.5	-11	13%	11	1%
C=C(C)c1cccc(C(C)(C)NC(=O)Nc2nncs2)c1	0	0.1	3	3%	19	-3%[15.4 µM]
CCOc1ccccc1-c1cnc(NC)cn1	0	-4.2	6	.	16	.
O=C1COc2ccc(C(=O)COC(=O)c3ccco3)cc2N1	5	-4.9	-4	-15%	0	17%
O=Cc1ccc(-c2ccccc2C(=O)O)o1	8	0.0	-4	-9%	3	5%[15.4 µM]
Cc1nnc(SCC(=O)Nc2sccc2C(N)=O)n1Cc1ccccc1	6	-0.3	-7	-1%	3	-28%
COc1cccc(NC(=O)c2nnn(CC(=O)Nc3cc(C)cc(C)c3)c2N)c1	0	-3.5	-13	5%	2	?
CCCc1cc(=O)[nH]c(SCc2cccnc2)n1	4	8.5	-6	-17%	9	-29%
Cc1ccc(-c2c(C#N)c(N)nc3c2CCCC3)o1	-8	-6.5	-7	4%	0	21%
O=C(O)c1[nH]c2ccccc2c1NS(=O)(=O)c1ccc(F)cc1	8	?	-1	13%	3	-12%
Cc1cc(C)nc(SCC(=O)NC2=NN=C(c3ccc(Br)cc3)CS2)n1	-15	-2.5	7	-8%	-13	18%
CCSc1nnc(NC(=O)C(NC(=O)c2ccc(Cl)cc2)C(C)C)s1 (stereo not drawn)	0	-3.7	-28	-13%	9	-2%
O=C(NCC1CCCO1)c1cccc(S(=O)(=O)N2CCCCC2)c1 (stereo not drawn)	-10	-1.0	8	5%	0	12%
COc1ccc(CCNC(=O)c2ccc([N+](=O)[O-])cc2)cc1	-10	2.3	2	-3%	5	-23%
CC1(C)Cc2ccccc2C(Nn2cnnc2)=N1	9	0.7	-3	10%	4	3%
COC(=O)c1c(C(=O)OC)c(-c2ccccc2)n2c1CS(=O)(=O)C2	0	-2.5	-7	-3%	11	?
Cc1ccc(S(=O)(=O)N2CCCCC2)cc1NC(=O)CCOc1ccccc1	-8	-2.0	-13	-21%	1	35%[15.4 µM]
O=C(Cn1nnc(-c2ccccc2)n1)Nc1ccccc1N1CCOCC1	9	-1.1	-19	-11%	6	-58%[inhibitor]
Cc1cccc(C)c1OCCn1nnc2ccccc21	0	-2.3	-4	10%	-1	2%[15.4 µM]
COc1ccc(-c2ccc(NS(=O)(=O)c3ccc([N+](=O)[O-])cc3)cc2)nn1	-18	?	-13	-19%	-1	?
COc1cc(OC)cc(C(=O)NCC(=O)OCC(=O)Nc2ccc(C)c(S(=O)(=O)N3CCOCC3)c2)c1	-26	-0.8	0	-3%	-10	-2%
O=C(Nc1nc(=O)c2ccccc2s1)c1ccc(F)cc1	46	-1.2	-15	6%	0	-6%
NC(=S)N=Nc1c(O)n(CCCl)c2ccccc12	-2	-5.5	-4	9%	-4	-17%[15.4 µM]
O=C(Cc1ccc(Cl)cc1)c1c[nH]c(C(=O)NCCCn2ccnc2)c1	2	-4.6	-4	10%	-13	-14%
O=C1CN(C(=O)c2ccccc2)C(c2ccccc2)c2cc(Cl)ccc2N1 (stereo not drawn)	-22	-1.4	-8	-1%	-3	-18%
O=C(Cc1ccccc1)NC1CCSc2ccccc21 (stereo not drawn)	-3	-5.2	-13	-6%	-2	18%
Cc1ccc(C2=NN(C(=O)COc3ncnc4ccccc34)C(c3ccco3)C2)cc1 (stereo not drawn)	8	-4.5	-3	-15%	2	15%[15.4 µM]
CCCc1nc2c(ccc3ccccc32)cc1CC	.	-4.2	3	-2%	10	7%
O=C1CCC(c2ccccc2)=NN1	-15	-0.7	-5	-5%	1	5%[15.4 µM]
CSCCC(NC(=O)c1ccccc1Cl)C(=O)Nc1ccc(C)c(S(=O)(=O)N2CCOCC2)c1 (stereo not drawn)	0	-3.3	-27	-31%	0	?
O=C(CN1CCc2ccccc2C1)Nc1ccccc1C(=O)NC1CC1	-4	0.0	-16	-4%	9	7%
CN(C(=O)c1cc(COc2ccc(F)cc2Cl)on1)C1CCCc2ccccc21 (stereo not drawn)	10	-1.3	-4	-10%	5	27%
COCCn1c(SC2CCOC2=O)nc2ccccc2c1=O (stereo not drawn)	5	-2.7	1	7%	9	17%[15.4 µM]
CC(=O)Nc1ccc(NC(=O)CCCSc2nc3ccccc3s2)cc1	7	-1.3	3	7%	5	-15%[15.4 µM]
CN1C(=O)NC(c2ccc(O)cc2)C2=C1CN(c1ccc(O)cc1)C2=O (stereo not drawn)	4	2.4	-6	3%	1	-12%
Cc1cccc(Nc2ccccc2C(=O)O)c1C	5	-1.2	8	-14%	0	.
CCOc1ccccc1C(=O)Nc1cccc(-c2ccc(N3CCOCC3)nn2)c1	?	-3.7	-2	?	?	-8%[15.4 µM]
O=S(=O)(NCCN1CCOCC1)c1cc(Cl)ccc1Cl	8	0.8	-3	-5%	5	-34%[inhibitor]
O=C(c1cccs1)N1C[C@@H](O)[C@H](n2cc(C3CC3)nn2)C[C@@H]1c1ccc(Cl)cc1	3	-2.6	-5	.	-4	?
CCCCCCC1CC(C)(/C(C)=N/NC(N)=O)OC1=O (stereo not drawn)	4	-2.5	-9	2%	2	-2%
CCCCN(C/C=C/c1ccccc1OC)Cc1ccccc1	6	1.6	-34	4%	21	-7%[15.4 µM]
More structures follow.
SMILES	CtBP-E1A inh	D2 ag	D2 potentiator	gsp antagonist	Six1-Eya2 blk	gsp agonist
Cc1n[nH]c(=O)c2c(NC(=O)COC(=O)Cc3c(F)cccc3Cl)oc(C)c12	-2	-7.3	-9	-5%	-8	12%[15.4 µM]
COCCCN(C(=S)Nc1cccc(Cl)c1)C(C)c1ccncc1 (stereo not drawn)	0	-1.4	-10	-12%	5	-26%
CC(=O)c1ccc(Nc2nc(C(C)N)cs2)cc1 (stereo not drawn)	-15	4.5	-4	.	2	.
COc1cc(NC(=S)NC(=O)CCc2ccccc2)cc(OC)c1	-11	3.5	62*	-9%	-10	-17%
CCOC(=O)c1c(NC(=O)CN2CCN(C(=O)c3ccco3)CC2)sc(C)c1C	-8	-7.7	-19	?	-9	?
N#C/C(=C\c1cccnc1)C(=O)NC1CCCCC1	12	-2.6	-5	19%	3	-3%[15.4 µM]
Cc1ccc(CNC(=O)C2CCCCN2S(=O)(=O)c2ccccc2)cc1 (stereo not drawn)	8	-0.1	-4	-14%	3	-2%[15.4 µM]
CC(C)(C)c1cc(Cl)ccc1OCCOCCN1CCCC1	-17	-4.6	-13	9%	-12	-47%[inhibitor]
CCCNC(=O)[C@H](C)NC(=O)c1ccc(Br)cc1	13	-4.1	-1	1%	5	26%
COc1ccc(C(=O)Nc2nc(N3C(=O)c4ccccc4C3=O)n(-c3ccccc3)n2)cc1	?	-8.6	-11	0%	?	-11%
C=CCn1c(=S)[nH]c2scc(-c3ccco3)c2c1=O	19	-2.8	-3	-4%	?	29%[15.4 µM]
CN1CCc2c(OCC(=O)NC3CCCCC3)cccc2C1=O	1	-0.8	-30	-8%	5	-53%[inhibitor]
C=CCN1C(=O)c2ccc(C(=O)N(C)CC(=O)Nc3ccccc3Cl)cc2C1=O	3	-1.5	-22	4%	1	-3%[15.4 µM]
CC(C)C[C@H](NC(=O)N1CCn2c1nc1ccccc12)C(=O)NCC1CCCO1 (stereo partly drawn)	3	-0.2	-6	6%	4	-18%
CCN(CC1COc2ccccc2O1)C(=O)c1ccc(Cl)c(S(=O)(=O)N2CC(C)OC(C)C2)c1 (stereo not drawn)	1	-4.3	-2	-20%	5	-6%[15.4 µM]

Assay outcomes (PubChem BioAssay)
